# OX1R antag-1 = human HCRTR1 antagonism; inhibition, % at 5 µM; AID 434989; CHO/OX1R cells, Fluo-8 calcium fluorescence, orexin A; O43613; actives 0.43% (n = 330,000);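 active = inhibition above its plate's threshold, mean inhibition of all tested compounds on the plate plus 3 SD, cut at about 37% in these data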;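 also: 0% = orexin A challenge wells and 100% = SB-334867-A antagonist wells; not every result past the cut was called active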
# Target sequence (O43613 whole entry, looked up): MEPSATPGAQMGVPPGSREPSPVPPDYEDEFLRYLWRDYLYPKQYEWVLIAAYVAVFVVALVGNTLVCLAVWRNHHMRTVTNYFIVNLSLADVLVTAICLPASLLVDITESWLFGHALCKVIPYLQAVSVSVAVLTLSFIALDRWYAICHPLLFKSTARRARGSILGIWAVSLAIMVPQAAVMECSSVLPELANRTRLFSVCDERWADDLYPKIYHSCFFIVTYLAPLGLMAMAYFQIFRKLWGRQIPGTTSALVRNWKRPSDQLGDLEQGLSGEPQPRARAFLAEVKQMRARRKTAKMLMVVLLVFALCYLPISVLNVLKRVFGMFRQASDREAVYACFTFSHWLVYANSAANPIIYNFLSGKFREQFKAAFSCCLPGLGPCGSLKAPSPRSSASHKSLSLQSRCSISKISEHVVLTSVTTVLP
# OX1R antag-2 = OX1R (human) antagonism; OX1R-expressing cells, FRET antagonist read-out; inhibition, % at 6.6 µM; actives 1.8% (n = 330,000); AID 485270; in the data active = inhibition mostly above about 38%, no sharp cut-off; inactive = mostly below about 40%;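 also: 0% = agonist challenge alone and 100% = reference antagonist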
# * marks the source's active call; other numbers are inactive results.
mol	OX1R antag-1	OX1R antag-2
COc1ccc(NC(=S)Nc2cccc(Cl)c2)cc1OC	-25	57
COc1cc(C(C(=O)NC2CCCCC2)N(Cc2ccco2)C(=O)c2cnccn2)cc(OC)c1OC (stereo not drawn)	-17	20
CCOC(=O)c1cc(CC)sc1NC(=O)Cc1ccccc1	-68	22
Cc1csc(NC(=O)CSc2nnc(-c3ccoc3C)n2CCc2ccccc2)n1	-13	57
CCCCOc1ccc(C2C(C(=O)c3cccs3)=C(O)C(=O)N2CCN2CCOCC2)cc1 (stereo not drawn)	-15	-1
Cc1ccc(CN2CCS(=O)(=O)CC2)o1	-5	15
COc1ccc(CC(=O)O/N=C(\N)c2ccc(OC)cc2)cc1	-5	5
CN(C)CCCNC(=O)c1ccc(Cl)c(S(=O)(=O)N(C)c2ccccc2)c1	-19	4
CC(C)(C)c1ccccc1NC(=O)Cn1c(=O)cnc2ccccc21	-20	16
O=c1c2c(-c3ccc(Cl)cc3)csc2nc2n1CCC2	-19	5
COCCCNC(=O)CSc1ccsc1[N+](=O)[O-]	-7	40

# Some of the entries so far, with values ahead of the structure.
OX1R antag-1	OX1R antag-2	canonical_smiles
-13	57	Cc1csc(NC(=O)CSc2nnc(-c3ccoc3C)n2CCc2ccccc2)n1
-17	20	COc1cc(C(C(=O)NC2CCCCC2)N(Cc2ccco2)C(=O)c2cnccn2)cc(OC)c1OC (stereo not drawn)
-19	5	O=c1c2c(-c3ccc(Cl)cc3)csc2nc2n1CCC2
-25	57	COc1ccc(NC(=S)Nc2cccc(Cl)c2)cc1OC
-15	-1	CCCCOc1ccc(C2C(C(=O)c3cccs3)=C(O)C(=O)N2CCN2CCOCC2)cc1 (stereo not drawn)

# The list is partial; most or all hits stand in other tables.
